Methyltransferases: Primary Screen for Target Class Profiling of Small Molecule Inhibitors of Methyltransferases; purified enzyme, MTase-Glo SAH luminescence; stronger effect = lower value; calls only at 40 µM; actives 3.9% (n = 25,000); active = -50% or lower on at least one of six enzymes; inconclusive = the cases between; inactive = as a rule above -30% on all six;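 note: enzymes were COMT GAMT GNMT HNMT NNMT and PNMT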
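Each enzyme was assayed with SAM and its substrate. SAH formation detected by MTase-Glo luminescence; single-point 40 uM screen[…].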
Calls only; i = inactive; ? = inconclusive; + = active, no number. % is set by controls: 0 for no effect and ±100 for the full control effect. This is a subset (hit frequency here may not be typical).

structure	Methyltransferases
COc1ccc(C[C@H](N)C(=O)N[C@@H]2[C@H](O)[C@H](n3cnc4c(N(C)C)ncnc43)O[C@@H]2CO)cc1	?
COc1ccc(CCNC(=O)C(C)n2ccc3cc(S(=O)(=O)N4CCCC4)ccc32)c(OC)c1 (configuration not stated)	i
Nc1nc(NCc2ccc(Cl)cc2Cl)cc(C2CC(O)C2)n1 (configuration not stated)	+
Cc1cc(C)cc(N2C(=O)CSc3c(c4ccccc4n3C)C2C(=O)NCc2ccccc2)c1 (configuration not stated)	i
CC(C)NC(=O)c1ccc2c(=O)n(C(C)C)c3nn(Cc4ccc(F)cc4Cl)c(=O)n3c2c1	i
CC(=O)OC1C(=O)C2C3OCC4=C3[C@@](C)(CC[C@@H]4O)CC[C@]2(C)[C@H]1C(C)C (some centres not stated)	i
COCCNC(=O)c1cc(N2CCOCC2)cc2c1OCCN2C	i
Cc1noc(C)c1CC(=O)N1CCCCCCNC(=O)[C@@H]2CCCC[C@@H]21	i
COc1ccc(S(=O)(=O)N2CCOC[C@H](Oc3ccccc3)C2)cc1	i
CCCn1c(=O)c2ccc(C(=O)NC(C)C)cc2n2c(SCC(=O)c3ccc(OC)cc3)nnc12	i
CC1CC(C)CN(S(=O)(=O)c2ccc3c(c2)oc(=O)n3CC(=O)N(C)Cc2ccco2)C1 (configuration not stated)	i
CNC(=S)NS(=O)(=O)c1cc(CCNC(=O)c2cc(Cl)ccc2OC)ccc1OC	i
Cc1nnc(-c2cc(-c3ccsc3)ccn2)n1-c1ccccc1	i
CC1(C(=O)NC2CCCCCCC2)Cn2c(cc3sccc32)C(=O)N1Cc1cccc(F)c1 (configuration not stated)	i
CCCN(CCC)CCN1C(=O)c2cc3sc(CC)cc3n2CC1(C)C(=O)NC1CCCCC1 (configuration not stated)	i
CC1CCCC(NC(=O)C2(C)Cn3c(nc4ccccc43)C(=O)N2Cc2ccccc2F)C1C (configuration not stated)	i
Cn1cccc1-c1noc(C2CCN(C(=O)COc3ccc(F)cc3)CC2)n1	i
Oc1ccc([C@@H]2Oc3ccc(O)cc3[C@@H]3CCC[C@@H]32)cc1	i
CC(=O)Nc1c2n(c3ccc(F)cc13)CC(C)(C(=O)NCCC(C)C)N(Cc1ccco1)C2=O (configuration not stated)	i
CN(Cc1cc(C[C@@H]2C[C@H](NC(=O)C(C)(C)C)C2(C)C)no1)c1ccccc1	i
C=C1CCC2C(C)(C)CC(O)CC2(C)C1CCC(C)CCOC(=O)CCC(=O)O (configuration not stated)	i
CCCn1c(=O)c2ccc(C(=O)NC(C)C)cc2n2c(SCC(=O)c3ccc(F)cc3)nnc12	i
O=C(CCc1nnc2n(Cc3ccc(F)cc3)c(=O)c3ccccc3n12)N1CCN(c2ccc(Cl)cc2)CC1	i
CN1c2cc(C(=O)NCc3ccccc3)ccc2C(=O)N2CCCC21 (configuration not stated)	i
COc1ccc2c(c1)c(NC(C)=O)c1n2CC(C)(C(=O)NC2CCCCC2)N(CCN(C)C)C1=O (configuration not stated)	i
CCc1nc(CC)n2ccn(Cc3ccc(OC)cc3)c(=O)c12	i
CC(C)(C)CC(=O)N[C@H]1CO[C@H]2[C@@H]1OC[C@H]2OCC(N)=O	i
O=C(NC1CCCCC1)N1CCCCCC1c1nc(-c2ccncc2)no1 (configuration not stated)	i
COc1ccc(-c2cc3n(n2)CC(C)(C(=O)NCc2ccccc2)N(Cc2cc(OC)ccc2OC)C3=O)cc1 (configuration not stated)	i
CS(=O)(=O)NC[C@H]1Cn2ccnc2CO1	i
CCOC(=O)C1CCN(C(=O)CN(C)S(=O)(=O)c2ccc3c(c2)CCCC(=O)N3)CC1	i
CN1C(=O)c2cc(C(=O)NCc3ccccc3Cl)nn2CC1(C)C(=O)NCc1ccccc1 (configuration not stated)	i
CCc1ccccc1NC(=O)CSc1nnc2[nH]c(=O)c(C)nn12	i
O=C(O)Cc1c(-c2ccccc2)c2cc(Br)ccc2[nH]c1=O	i
Cc1nc([C@H]2CCN(Cc3cccc(OC(F)(F)F)c3)C[C@H]2NC(=O)C2CC2)n[nH]1	i
O=C1NC2(CCCN(C(=O)Cc3ccccc3)C2)COc2ccccc21 (configuration not stated)	i
COc1cccc(-c2nnc3n(CCc4ccccc4)c(=O)c4ccccc4n23)c1OC	i
Cc1cc2[nH]c(=O)[nH]c2cc1S(=O)(=O)Nc1ccccc1	i
Cc1cc(Cl)ccc1N1C(=O)c2cc(-c3ccccc3)nn2CC1(C)C(=O)NCc1ccccc1 (configuration not stated)	i
CC(=O)N1CCN(c2cc(-c3noc([C@@H]4CCCN4Cc4ccccc4)n3)ccn2)CC1	i
CC1=C[C@@H](CC#N)[C@H](C(C)C)C[C@H]1CC(=O)N(C)Cc1cccnc1	i
CC(C)CCN1C(=O)c2ccc(-c3ccccc3)n2CC1(C)C(=O)NC1CCC(C)CC1 (configuration not stated)	i
Fc1ccc2[nH]c(CN3CCN(c4ccccn4)CC3)cc2c1	i
O=C(C[C@@H]1CCNC[C@@H]1Cc1cc(CN2CCOCC2)on1)N1CCN(c2ccc(F)cc2)CC1	i
CCOc1ccc(CNS(=O)(=O)c2ccc3c(c2)n(C)c(=O)n3C)cc1OC	i
CCOC(=O)CNC(=O)C1(C)Cn2c(ccc2-c2ccco2)C(=O)N1Cc1ccccc1Cl (configuration not stated)	i
Cc1ccc(C(=O)Cn2nc3n(CC(C)C)c(=O)c4ccccc4n3c2=O)c(C)c1	i
CC(=O)OC1/C(C)=C/C(=O)C(OC(C)=O)C(C)(C)/C=C/C(C)C(=O)C2(OC(C)=O)CC(C)C(OC(=O)c3ccccc3)C12 (configuration not stated)	i
Cc1nnc2ccc(N3CCN(C(=O)c4ccncc4)CC3)nn12	i
Cn1cc(-c2ccc3ncc(Cc4ccc5ncccc5c4)n3n2)cn1	i
O=C(NCCc1cccs1)C1CCN(c2cc(C(F)(F)F)ncn2)CC1	i
Cc1ccc(-c2n[nH]n3c2nc(=O)c2ccc(C(=O)N4CCN(c5ccc(F)cc5)CC4)cc23)cc1	i
COc1ccc(N2C(=O)c3ccc(-c4ccco4)n3CC2(C)C(=O)NC2CCCC2)cc1OC (configuration not stated)	i
CCc1ccc(S(=O)(=O)c2nnn3c2nc(NCCc2c[nH]c4ccccc24)c2ccccc23)cc1	i
CC1CCC(NC(=O)C2(C)Cn3c(cc4occc43)C(=O)N2C2CCCCC2)CC1 (configuration not stated)	i
Cc1c(Cl)cccc1N1C(=O)c2cc(C(C)(C)C)nn2CC1(C)C(=O)NC1CCCCC1 (configuration not stated)	i
COc1cccc(CNc2nc3c(-c4cccc(Br)c4)nnn3c3ccccc23)c1	i
Cc1ccc(OC[C@H](O)[C@H](C)NC(C)C)c2c1CCC2	i
Cc1ccc2c(c1)c1c3n2CCN(C(=O)c2ccccc2Cl)C3CCC1 (configuration not stated)	i
C=CCn1c(=O)c2ccc(C(=O)NC(C)CC)cc2n2c(=O)n(CC(=O)Nc3ccc(F)cc3)nc12 (configuration not stated)	i

(cont.)
structure	Methyltransferases
COc1ccc(-c2cc3n(n2)CC(C)(C(=O)NCc2ccccc2OC)N(CCc2cccs2)C3=O)cc1 (configuration not stated)	i
CCOC(=O)C(Cc1cccc(N2CCN(C(=O)OC(C)(C)C)CC2)c1)OC (configuration not stated)	i
CC(=O)N1CCc2nn(CC(=O)N3CCN(c4ccccc4)CC3)c(=O)cc2C1	i
N#Cc1ccc(C(=O)NCc2nn(Cc3ccccc3)c3ccccc23)c(F)c1	i
CN1CC2(CCN(C(=O)CCc3nc(-c4ccco4)no3)C2)OC1=O (configuration not stated)	i
CC(C)OCCCN1C(=O)c2ccc(-c3ccco3)n2CC1(C)C(=O)NC1CCCCCC1 (configuration not stated)	i
CCCCCCCCCCCCCC#CC(=O)[C@@H]1COC(C)(C)N1C(=O)OC(C)(C)C	?
C=C1C(=O)O[C@@H]2/C=C(\C)C(=O)/C=C/[C@](C)(O)C[C@@H](OC(=O)C(C)C)[C@@H]12	+
CC(=O)N1CCN(C(=O)c2nc(-c3ccccc3)cs2)CC(O)C1 (configuration not stated)	i
CC(CNC(=O)CCc1nnc2n(Cc3ccccc3)c(=O)c3ccccc3n12)c1ccccc1 (configuration not stated)	i
Cc1cn2nc(C(=O)NC3CCCC3)cc2c(N2CCSCC2)n1	i
C[C@@H]1CC[C@]2(C(=O)O)CC[C@]3(C)C(=CCC4[C@@]5(C)CC[C@H](O)C(C)(C)C5C(O)C[C@]43C)[C@@H]2[C@]1(C)O (some centres not stated)	i
COc1ccc(OC)c2c1cc1n2CC(C)(C(=O)NC2CCCCC2C)N(Cc2ccco2)C1=O (configuration not stated)	i
COC(=O)c1cc(COc2ccc3c(-c4ccccc4)cc(=O)oc3c2)c(C)o1	i
CC(=O)O[C@@]1(C)[C@@H]2CC(=C(C)C)C(=O)C[C@@]2(C)CC[C@H]1OC(=O)C1(C)OC1C (some centres not stated)	i
CC1CCC(NC(=O)C2(C)Cn3c(nc4ccccc43)C(=O)N2Cc2ccccc2F)CC1 (configuration not stated)	i
O=C(CSc1nnc2n(Cc3ccccc3)c(=O)c3ccccc3n12)Nc1ccccc1F	i
CC1(C(=O)NC2CCCCC2)Cn2c(ccc2-c2ccccc2)C(=O)N1CCCN1CCCC1=O (configuration not stated)	i
COC(=O)[C@@H](Cc1cccnc1)NC(=O)[C@@H]1CN(C(=O)c2cccc(F)c2)CCN1C(=O)C1CCCCC1	i
O=C1NC(=NC2CCCCC2)C2(CCN(Cc3ccccc3)C2)N1c1cccnc1 (configuration not stated)	i
COc1ccc(CNC(=O)c2ncn3c2C(=O)N(C2CC2)C(C)(C(=O)NCc2ccccc2Cl)C3)cc1 (configuration not stated)	i
CCn1ncc(CN2CCC3(CCC3OC)CC2)c1C (configuration not stated)	i
CC(C)(C)OC(=O)N1CCC(OCc2nc(-c3ccncc3)no2)CC1	i
CCOC(=O)c1cnn(-c2ccccc2)c1NC(=O)c1cc2nc(-c3ccco3)cc(C(F)(F)Cl)n2n1	?
OC[C@@H]1O[C@H](CNCc2ccc(F)cc2)[C@H](N2CCCC2)[C@@H]1O	i
COCCCN1C(=O)c2cc3occc3n2CC1(C)C(=O)NC1CCCCCCC1 (configuration not stated)	i
CCN(Cc1nccn1C)C(=O)c1ccc(N2CCC(COC)C2)nc1 (configuration not stated)	i
CC1CCC(NC(=O)Cn2ccc3cc(S(=O)(=O)N4CCCCC4)ccc32)CC1 (configuration not stated)	i
O=C(Nc1ccccc1F)C1CN(C2CCCCC2)C(=O)N1 (configuration not stated)	i
CCCN1C(=O)c2c(C(=O)NCc3ccc(OCC)cc3)ncn2CC1(C)C(=O)NCc1ccc(C)cc1 (configuration not stated)	i

Reformatted: 4 of the compounds above
smiles: CC(CNC(=O)CCc1nnc2n(Cc3ccccc3)c(=O)c3ccccc3n12)c1ccccc1 (configuration not stated)
  Methyltransferases: i

smiles: O=C1NC(=NC2CCCCC2)C2(CCN(Cc3ccccc3)C2)N1c1cccnc1 (configuration not stated)
  Methyltransferases: i

smiles: O=C(CSc1nnc2n(Cc3ccccc3)c(=O)c3ccccc3n12)Nc1ccccc1F
  Methyltransferases: i

smiles: COC(=O)c1cc(COc2ccc3c(-c4ccccc4)cc(=O)oc3c2)c(C)o1
  Methyltransferases: i

Compounds listed so far that contain bromine:
structure	Methyltransferases
O=C(O)Cc1c(-c2ccccc2)c2cc(Br)ccc2[nH]c1=O	i
COc1cccc(CNc2nc3c(-c4cccc(Br)c4)nnn3c3ccccc23)c1	i

Next part:
structure	Methyltransferases
CCCn1cc(-c2ccnc(NC3CCN(Cc4cccnc4)CC3)n2)c(C)n1	?
CC1CCC2C(C)(C)[C@H](O)CC[C@]2(C)C12Cc1c(O)cc3c(c1O2)CN(C(CCC(=O)O)C(=O)O)C3=O (some centres not stated)	i
COc1cccc(Cn2nc3n(CC(C)C)c(=O)c4ccccc4n3c2=O)c1	i
O=C(NCCc1c[nH]c2ccc(Cl)cc12)c1cc2n(n1)CCCN(Cc1ccc(F)cc1)C2=O	i
O=C(Cc1cccs1)N1CCN(c2cc(C(F)(F)F)ncn2)CC1	i
CCOc1cccc(CN2CC(C(=O)NCc3ccncc3)C3(CCOCC3)C2)c1 (configuration not stated)	i
COCCN1CCC(C(=O)NO)(S(=O)(=O)c2ccc(Oc3ccc(OC(F)(F)F)cc3)cc2)CC1	i
Cc1cccc(Cn2nc3n(C)c(=O)c4ccc(C(=O)NC5CCCC5)cc4n3c2=O)c1	i
CCCC1c2cccn2CCN1C(=O)Nc1cc(OC)cc(OC)c1 (configuration not stated)	i
CC(=O)N[C@H]1C[C@@H](c2cc(C)c(C)cc2C)O[C@@H](C(C)(C)C)C1	i
CC/C=C\C/C=C\C/C=C\CCCCCCCC(=O)OCC(O)COC1OC(CO)C(O)C(O)C1O (configuration not stated)	?
CCc1nc2c(sc3nc4c(cc32)COC(C)(C)C4)c(=O)n1Cc1ccco1	?
Cn1ccnc1C(=O)N1CCC(Cc2ccc(CCC(=O)N3CCCC3)cc2)CC1	i
CCCCNc1ccc(C(=O)OCCN(CC)CC)cc1	i
CNCCN1CCC(c2cc(CN(C)C(=O)c3cccc(Oc4ccccc4)c3)ccn2)CC1	i
CC(CN1C(=O)c2ccc(-c3ccco3)n2CC1(C)C(=O)NC1CCCCCCC1)c1ccccc1 (configuration not stated)	i
CCCC1c2cccn2CCN1C(=O)Nc1cccc(C)c1C (configuration not stated)	i
O=C(CCc1nnc2n(Cc3ccc(F)cc3)c(=O)c3ccccc3n12)NCCc1ccccc1	i
Cc1ccc(CCNC(=O)c2cc3c(=O)[nH]c(C)cn3n2)cc1	i

High-throughput results from PubChem.
